FPR binder: human FPR ligands by binding competition, primary screen, cell-based, FPRL1 counter-screen, flow cytometry; 24,000 tested, 0.74% active; FPR-expressing cells, fluorescent ligand binding; fMet-Leu-Phe receptor (Homo sapiens), P21462; AID 440, 2006; inhibition, %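 (tested at 6.7 µM)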;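 further: 0% = buffer wells and 100% = receptor blocker peptide wells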
Target sequence (P21462 whole entry, looked up): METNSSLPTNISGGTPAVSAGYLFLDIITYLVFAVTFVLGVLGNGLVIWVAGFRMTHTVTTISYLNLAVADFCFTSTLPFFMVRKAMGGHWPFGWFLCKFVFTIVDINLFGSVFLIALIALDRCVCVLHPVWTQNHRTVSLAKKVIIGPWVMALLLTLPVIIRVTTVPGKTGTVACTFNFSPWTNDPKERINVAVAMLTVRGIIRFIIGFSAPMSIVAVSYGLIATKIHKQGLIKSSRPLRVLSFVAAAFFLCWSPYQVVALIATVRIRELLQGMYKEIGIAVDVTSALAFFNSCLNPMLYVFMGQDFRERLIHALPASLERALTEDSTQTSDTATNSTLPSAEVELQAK
VCAM-1 down imaging: inhibitors of TNFa-induced VCAM-1 surface display, imaging, high-content imaging, pooled HUVEC, TNFa stimulus (AID 456) | 10,000 tested, 0.2% active | HUVEC TNFa-induced VCAM-1 surface expression, immunofluorescence imaging; numbers were filed only for top-ranked candidate wells | one-dose inhibition, % at 5 µM; IC50 in µM for titrated hits;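 active means top tenth filtered wells with inhibition above zero that passed visual or statistical confirmation; inactive means the rest, including hits rejected on review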;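 further: 0% = stimulated vehicle wells and 100% = unstimulated cells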
VCAM-1 down: inhibitors of TNFa-induced VCAM-1 surface display, cell-based, plate reader, pooled HUVEC, TNFa stimulus (AID 454); 10,000 tested, 0.2% active; HUVEC TNFa-induced VCAM-1 surface immunofluorescence, plate reader; numbers were filed only for top-ranked candidate wells; inhibition, % at 5 µM;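 active means compound among top-ranked inhibitors of TNF-induced VCAM-1 adhesion protein staining, with the hit upheld by image or statistical review; inactive means the rest, including hits rejected on review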;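 further: 0% = TNFa with vehicle and 100% = cells without TNFa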
FPRL1 ligand: human FPRL1 ligands by binding competition, primary screen, cell-based, FPR counter-screen, flow cytometry | N-formyl peptide receptor 2 (Homo sapiens), P25090 | FPRL1-expressing cells, fluorescent ligand binding inhibition | inhibition, %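 (tested at 6.7 µM)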 | 24,000 tested, 0.3% active;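 further: 0% = buffer alone and 100% = receptor blocker peptide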
Target sequence (P25090 whole entry, looked up): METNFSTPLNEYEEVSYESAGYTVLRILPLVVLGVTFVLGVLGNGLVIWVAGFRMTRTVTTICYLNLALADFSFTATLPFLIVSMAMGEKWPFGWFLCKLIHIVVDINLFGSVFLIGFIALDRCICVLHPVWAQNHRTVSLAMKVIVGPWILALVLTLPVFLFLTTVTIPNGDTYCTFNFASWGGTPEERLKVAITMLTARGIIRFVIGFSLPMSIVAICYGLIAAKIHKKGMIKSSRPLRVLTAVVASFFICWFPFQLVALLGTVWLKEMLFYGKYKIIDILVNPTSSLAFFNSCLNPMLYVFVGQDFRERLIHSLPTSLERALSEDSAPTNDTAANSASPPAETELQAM
VCAM-1 augmentation: enhancers of VCAM-1 display on endothelial cells, imaging, high-content imaging, pooled HUVEC, TNFa stimulus (AID 457); 10,000 tested, 0.2% active; calls only; Pooled HUVEC, TNFa-induced VCAM-1 immunofluorescence imaging; hits of this screen are not shown here;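 active means a top-ranked rise in VCAM-1 staining upheld on image or statistical review; inactive means the rest, including candidates rejected on review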;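 further: compounds tested at 5 µM in the well; cells exposed to compound for 24 hours before fixing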
An asterisk follows results filed as active; i = inactive; · = no result given.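 How the source made its calls, unless noted: active means mean above 30%; inconclusive means self-fluorescent; inactive means the rest.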

SMILES	FPR binder	VCAM-1 down imaging	VCAM-1 down	FPRL1 ligand	VCAM-1 augmentation
Cc1c(C(=O)N2CCOCC2)oc2ccc(S(=O)(=O)N3CCCC3)cc12	-6	i	i	-2	i
CCC1CCCCN1CCNS(=O)(=O)c1ccc2c(c1)CCN2C(C)=O (stereo not drawn)	10	·	·	11	·
CCN1CCc2c(C#N)c(N3CCCCC3)nc(NCc3ccccc3)c2C1	4	i	i	-6	i
O=C(O)C1CCCN1c1ncnc2c1oc1ccccc12 (stereo not drawn)	-6	i	i	1	i
Cn1c(=O)cc(OCCCC(=O)N2CCN(c3ccccc3)CC2)c2ccccc21	-1	·	·	-1	·
CCOc1ccc(C(=O)Nc2c3c(nn2-c2ccc(F)cc2)CS(=O)C3)cc1 (stereo not drawn)	2	·	·	-2	·
CN1C(=O)C(O)(CC(=O)c2ccccc2O)c2cc(Br)ccc21 (stereo not drawn)	2	i	i	-2	i
CCOC(=O)N1CCN(C(=O)CSc2nnc(-c3cc(OC)cc(OC)c3)o2)CC1	-1	i	i	-7	i
COc1ccc(OC)c(S(=O)(=O)NCc2cn3cccc(C)c3n2)c1	2	·	·	5	·
CCCC1CC(C)(C(=O)Cn2[nH]c(=O)ccc2=O)OC1=O (stereo not drawn)	1	i	i	-8	i
Cc1ccc(S(=O)(=O)N2CCCC(C(=O)NCCCN3CCCCC3C)C2)cc1 (stereo not drawn)	-8	·	·	-2	·
O=C(NCCN1CCCCCC1)c1ccc(CS(=O)(=O)c2ccc(Br)cc2)o1	-7	i	i	2	i
N#Cc1nn(-c2ccccc2)nc1N1CCCCC1	-5	·	·	6	·
CCC1(C)COC2(OC1)C(=O)Nc1ccccc12 (stereo not drawn)	-1	·	·	5	·
Cc1nn(C)c(C)c1NC(=O)CSc1nc(Cc2ccccc2)nc2c1cnn2-c1ccccc1	0	i	i	-7	i
O=C(C1CCN(S(=O)(=O)c2cccc3cccnc23)CC1)N1CC=C(c2ccccc2)CC1	-2	·	·	-5	·
Cc1c(C(=O)NCc2ccccc2)oc2ccc(S(=O)(=O)N3CCCC3)cc12	19	·	·	20	·
CSc1ccc(NC(=O)NCCCN2CCN(c3ccccc3F)CC2)cc1	0	·	·	-8	·
C(=C\c1ccccc1)/CSc1nnc(-c2ccccn2)n1Cc1ccco1	-1	i	i	1	i
COc1ccccc1OCc1ccc(C(=O)OCC2CCCO2)o1 (stereo not drawn)	2	i	i	2	i
CN=Cc1sc2ccccc2c1O	0	·	·	-15	·
Cn1nccc1C(=O)Nc1ccc(OC(=O)c2ccnn2C)cc1	-2	·	·	-4	·
Cc1cccc(N2CCN(C(=O)CCn3c(=S)[nH]c4cc5c(cc4c3=O)OCO5)CC2C)c1 (stereo not drawn)	1	i	i	-6	i
COC(=O)c1cccc(NC(=O)C2C3CCC(C3)C2C(=O)O)c1 (stereo not drawn)	-10	·	·	-9	·
CC1CC(C)(C)NC(C)c2ccccc21 (stereo not drawn)	3	·	·	-8	·

Following part:
SMILES	FPR binder	VCAM-1 down imaging	VCAM-1 down	FPRL1 ligand	VCAM-1 augmentation
Cc1nn(CC(C)C)c(=S)[nH]c1=O	0	·	·	-2	·
CC(C)c1nnc(NC(=O)Cc2cccs2)s1	0	i	i	5	i
CCOC(=O)c1c(C(=O)OCC)c(C)n(N2C(=O)CSC2=S)c1C	-2	·	·	-9	·
COCCn1c(=O)[nH]c2cc(C(=O)NCCN3CCN(c4cccc(Cl)c4)CC3)ccc2c1=O	7	·	·	8	·
O=C(Cc1ccccc1)Nc1ccc(CN2CCOCC2)cc1	-6	i	i	2	i
Cc1cc(C)cc(OCC(=O)NC2=NCCS2)c1	7	i	i	3	i
CCOC(=O)C1CCCN(C(=O)C2CCN(Cc3nc(-c4ccc(Cl)cc4)oc3C)CC2)C1 (stereo not drawn)	1	·	·	-3	·
Cc1cc(NC(=O)CCCC(=O)OCC(F)(F)C(F)F)cc(C)c1C(=O)O	2	·	·	-2	·
CCSc1nnc(NC(=O)CSc2nc3c(c(=O)n2CC)SC(C)C3)s1 (stereo not drawn)	7	·	·	6	·
Nc1nc(N2C(=O)C3CC=CCC3C2=O)nn1-c1ccccc1 (stereo not drawn)	0	i	i	1	i
O=C(NC1CCCCC1)N(Cc1ccccc1)Cc1ccco1	-5	i	i	5	i
CCCCN(CCCC)S(=O)(=O)c1ccc2oc(C(=O)N3CCOCC3)c(C)c2c1	-9	·	·	-7	·
Cn1c(=O)c2cc(S(=O)(=O)NC(Cc3ccccc3)C(=O)NCc3ccco3)ccc2n(C)c1=O (stereo not drawn)	4	·	·	2	·
CCOc1ccc(S(=O)(=O)Nc2ccc3c(c2)OCO3)c2cccnc12	-3	·	·	-5	·
O=C(C1=C(O)C(=O)N(Cc2ccccc2)C1c1ccncc1)c1ccco1 (stereo not drawn)	32*	i	i	2	i
O=C(NC1CCCC1)C1c2ccccc2C(=O)N1C1CCCCC1 (stereo not drawn)	12	·	·	5	·
CC(C)CCN(C)C1CCN(C(=O)Nc2c(F)cccc2F)CC1	-7	·	·	0	·
O=C(C1CCN(c2ccc(N3CCOCC3)nn2)CC1)N1CCc2ccccc2C1	9	·	·	15	·
O=C(CCSc1ccccc1)Nc1ccc(S(=O)(=O)N2CCOCC2)cc1	-1	i	i	-2	i
COC(=O)c1ccc(C2/C(=C(/O)c3ccc(OC)cc3)C(=O)C(=O)N2c2cc(C)on2)cc1 (stereo not drawn)	-6	·	·	-3	·
O=C(CSc1nnc(CNC(=O)c2ccco2)o1)c1ccccc1	-4	·	·	-7	·
Cc1cccc(CS(=O)(=O)Cc2ccc(C(=O)NCC3CCCO3)o2)c1 (stereo not drawn)	-4	i	i	1	i
CN(Cc1cccs1)c1ncnc2sccc12	14	i	i	-3	i
COc1ccc(C(=O)Nn2c(SCC(=O)NCC3CCCO3)nc3ccccc3c2=O)cc1 (stereo not drawn)	6	i	i	0	i
Cc1ccc2oc(=O)c3cc(C(=O)NCc4ccco4)sc3c2c1	-1	·	·	-2	·

(continued)
SMILES	FPR binder	VCAM-1 down imaging	VCAM-1 down	FPRL1 ligand	VCAM-1 augmentation
CCOc1ccc2nc(NC(=O)Nc3cccs3)sc2c1	1	·	·	-2	·
COc1ccc(NC(=O)CSc2nnc(Cc3cccn3C)n2CCc2ccccc2)c(OC)c1	6	·	·	0	·
Cc1ccccc1-n1nc2c(c1NC(=O)c1c(-c3ccccc3Cl)noc1C)CSC2	4	·	·	2	·
CCOC(=O)c1[nH]c(CSc2nnc(-c3ccncc3)n2CCOC)c(C(=O)OCC)c1C	4	i	i	2	i
N#Cc1cnc2sc3ccccc3n2c1=N	24	i	i	9	i
O=C(CSc1nc2cc3c(cc2c(=O)n1CCC1=CCCCC1)OCO3)NCc1ccco1	0	·	·	-1	·
c1ccc(N2CCN(c3nc4cc5c(cc4s3)OCCO5)CC2)cc1	4	·	·	-2	·
COc1cccc(/C(O)=C2/C(=O)C(=O)N(CCN3CCOCC3)C2c2cccnc2)c1 (stereo not drawn)	-1	i	i	4	i
CCOc1ccc(C2CC(c3ccc(OC)cc3)n3ncnc3N2)cc1 (stereo not drawn)	-2	·	·	-1	·
Cc1cc(C(C)(C)C)cc(C)c1CC1=NCCN1	-7	i	i	-1	i
CC1CN(S(=O)(=O)c2cccc(C(=O)OCc3cc(=O)oc4cc(O)ccc34)c2)CC(C)O1 (stereo not drawn)	1	i	i	-7	i
CCOc1ccc(NC(=O)CN2CCN(S(=O)(=O)c3ccc(Cl)cc3)CC2)cc1	-1	·	·	1	·
O=C(O)C1CCCCC1C(=O)Nc1cccc(Cl)c1Cl (stereo not drawn)	-2	·	·	2	·
Cc1sc2ncnc(NCCCO)c2c1C	-3	·	·	2	·
Cc1ccc(-n2nc(C)c3c(C)c(CCC(=O)NCc4ccco4)c(C)nc32)cc1	5	·	·	0	·
CCc1nnc(NC(=O)c2ccc(-c3cccc(C(F)(F)F)c3)o2)s1	-8	i	i	-6	i
COc1cc(OC)c(NC(=O)Cn2cccc2)cc1Cl	-5	·	·	-1	·
Cc1ccc(NC(=O)c2cc(-c3cccc(O)c3)on2)cc1C	3	·	·	-3	·
CC1CCN(C(=O)C(Cc2ccccc2)NS(=O)(=O)c2ccc3c(c2)oc(=O)n3C)CC1 (stereo not drawn)	2	·	·	-1	·
COC(=O)Cn1c(CCS(=O)(=O)c2ccc(C)cc2)nc2ccccc21	-6	i	i	-5	i
O=S(=O)(NCC(c1cccnc1)N1CCN(c2ccc(F)cc2)CC1)c1cc(F)ccc1F (stereo not drawn)	-2	·	·	-3	·
Cc1ccc(-n2nc3c(c2NC(=O)c2ccc4c(c2)OCO4)CSC3)c(C)c1	-4	·	·	-5	·
Cc1nnc(NCCc2ccccc2)n(N)c1=O	6	i	i	5	i
COc1ccccc1OC(=O)c1ccc2nsnc2c1	-5	i	i	-2	i
O=C(NC(=O)c1ccc(Cl)cc1)Nc1cc(N2CCCCC2)ncn1	3	i	i	0	i

(more compounds)
SMILES	FPR binder	VCAM-1 down imaging	VCAM-1 down	FPRL1 ligand	VCAM-1 augmentation
COC(=O)Oc1c(Br)c(=O)oc2ccccc12	-4	i	i	2	i
O=C(NCC1CCCO1)C1CCC(=O)N1CCc1ccccc1 (stereo not drawn)	-1	·	·	-5	·
O=C(NCc1ccc2c(c1)OCO2)C1CCC(CNc2c(N3CCCC3)c(=O)c2=O)CC1 (stereo not drawn)	-1	·	·	-1	·
CCOC(=O)C1CCN(S(=O)(=O)c2ccc3c(c2)CCCN3C(C)=O)CC1	-12	·	·	-10	·
COc1ccc(C2C=C(C)Nc3nc(SC)nn32)cc1 (stereo not drawn)	-4	·	·	-9	·
CCOC(=O)COc1nc(OC)nc(N2CCOCC2)n1	-3	·	·	-1	·
CCOC(=O)Cc1csc(NC(=O)c2ccc(S(=O)(=O)N3CCCCC3)cc2)n1	-7	·	·	-9	·
Cc1ccc(Cn2nc(C)c(NC(=O)c3cc(-c4ccco4)on3)c2C)cc1	9	·	·	2	·
O=C(c1cccc(S(=O)(=O)N2CCOCC2)c1)N1CCCC1	-11	·	·	-6	·
O=C(NCC1COc2ccccc2O1)C1CCC(CNc2c(N3CCCCC3)c(=O)c2=O)CC1 (stereo not drawn)	3	·	·	2	·
CCOCCCNC(=O)C(c1ccc(C)cc1)N(Cc1ccc2c(c1)OCO2)C(=O)c1cnccn1 (stereo not drawn)	5	i	i	-6	i
Cc1ccc2nc(NC(=O)Cn3cc4c(n3)CCCCC4)sc2c1	4	i	i	-4	i
C=CCNc1nc(N(c2ccccc2)c2ccccc2)nc(-n2ccnc2)n1	1	·	·	0	·
CCCOc1ccc(-c2nc(N)n[nH]2)cc1	-2	·	·	-16	·
O=C(NCCCn1ccnc1)c1cc(-c2ccc3c(c2)OCO3)on1	2	·	·	5	·
Cc1c(C(=O)N2CCOCC2)sc2ncnc(N3CCc4ccccc4C3)c12	7	·	·	-2	·
Cc1cccc(C2CC(c3ccc(F)cc3)Nc3nc(N)nn32)c1 (stereo not drawn)	-2	·	·	0	·
COCCNC(=O)CCCCCN1C(=O)CCC1=O	1	i	i	2	i
COc1ccc(C2CC(=O)c3cnc(NC(=O)c4ccccc4OC)nc3C2)c(OC)c1 (stereo not drawn)	4	i	i	-1	i
CC(C)CN(CC(C)C)c1nnc(N)s1	2	·	·	0	·
CCCn1c(-c2ccc(F)cc2)cnc1SCC(=O)O	-6	i	i	4	i
Cc1cccc(NC(=O)CN(C)S(=O)(=O)c2cccc3nsnc23)c1C	4	·	·	-3	·

Four entries from above in a different format.
Molecule: CCOC(=O)C1CCN(S(=O)(=O)c2ccc3c(c2)CCCN3C(C)=O)CC1
  FPR binder: -12 | VCAM-1 down imaging: · | VCAM-1 down: · | FPRL1 ligand: -10 | VCAM-1 augmentation: ·

Molecule: Cc1c(C(=O)N2CCOCC2)oc2ccc(S(=O)(=O)N3CCCC3)cc12
  FPR binder: -6 | VCAM-1 down imaging: i | VCAM-1 down: i | FPRL1 ligand: -2 | VCAM-1 augmentation: i

Molecule: COc1ccc(C2C=C(C)Nc3nc(SC)nn32)cc1 (stereo not drawn)
  FPR binder: -4 | VCAM-1 down imaging: · | VCAM-1 down: · | FPRL1 ligand: -9 | VCAM-1 augmentation: ·

Molecule: COc1ccc(C2CC(=O)c3cnc(NC(=O)c4ccccc4OC)nc3C2)c(OC)c1 (stereo not drawn)
  FPR binder: 4 | VCAM-1 down imaging: i | VCAM-1 down: i | FPRL1 ligand: -1 | VCAM-1 augmentation: i

Compound profiles, as listed above:
O=C(c1cccc(S(=O)(=O)N2CCOCC2)c1)N1CCCC1 in the list: FPR binder: -11; VCAM-1 down imaging: ·; VCAM-1 down: ·; FPRL1 ligand: -6; VCAM-1 augmentation: ·
COCCNC(=O)CCCCCN1C(=O)CCC1=O in the list: FPR binder: 1; VCAM-1 down imaging: i; VCAM-1 down: i; FPRL1 ligand: 2; VCAM-1 augmentation: i

This is a subset; count on the stated rates, not on these rows.
